KSHV LANA nucl – inhibitors of KSHV LANA-nucleosome binding, primary screen, biochemical, fluorescence polarization, FITC-LANA1-23, chicken nucleosomes; FITC-LANA1-23 / chicken nucleosome fluorescence polarization; hits give low values; z-score (no concentration beside the values); actives 0.3% (n = 51,000); AID 720717, 2013;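 active = both repeat wells score below -2 in polarization z-score versus plate sample wells, excluding overly bright wells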;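 note: 100 nL library stock added to about 30 µL; numbers are from one replicate; some results filed as inactive read as strong as hits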
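Test system: purified chicken nucleosomes with FITC-labelled LANA N-terminal peptide (1-23); Input: 240 nM purified chicken nucleosomes (480 nM peptide binding sites), final; Medium: TEN-BT buffer, pH 7.5; Timing: 10–45 min, room temperature; Technique: fluorescence polarization, 480 nm excitation, 535 nm parallel and perpendicular emission; Replication: duplicates.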
BasE inh – BasE siderophore enzyme inhibitors, primary screen, biochemical, Acinetobacter baumannii ATCC 17978, fluorescence polarization. purified BasE, fluorescence polarization binding displacement. inhibition, % (no concentration beside the values). actives 0.1% (n = 84,000). AID 485350, 2010;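 active = both replicates above 25% with normal brightness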;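 note: 0% = negative plate control signal and 100% = positive plate control signal; stock transfer was 100 nL into about 30 µL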
The depositor's hits bear a star; . = not tested or not shown; & = joins results of further samples. Some of the compounds tested; count on the stated rates, not on these rows.

SMILES	KSHV LANA nucl	BasE inh
O=C(NCCCN1CCN(Cc2ccccc2)CC1)c1ccc(C(F)(F)F)cc1	-0.215	.
O=S(=O)(CCN1CCOCC1)c1ccc(F)cc1	-0.142	2.7
O=C(O)C1CCCCN1Cc1ccco1 (configuration not stated)	0.343	2.9
COc1ccc(/C=C/C(=O)Nc2ccc3c(c2)OCO3)cc1S(=O)(=O)N1CCCCC1	.	1.5
Cc1nn(CC(=O)N2CCCCC2)c(C)c1S(=O)(=O)NC(C)(C)C	.	-0.2
CC(C(=O)O)N1CCCCC1 (configuration not stated)	0.135	1.5
COc1cccc(-c2nc3cc(OC)c(OC)cc3c(=O)o2)c1	.	0.3
COC(=O)/C(C#N)=C/c1ccc(OC)cc1	0.116	0.4
Cc1nc2ccn(Cc3cccnc3)c(=O)c2cc1C(=O)NCCCc1ccco1	-2.12*	2.8
O=C1CN=C(Nc2ccccc2Cl)N1Cc1ccccc1	-0.288	-0.8
Cc1n[nH]c(C)c1NC(=O)CN(C)C(=S)NC1CC2CCC1C2 (configuration not stated)	.	-0.7
CCOc1cc(C2NS(=O)(=O)N=C3CCCN32)ccc1OCCOc1cccc(C)c1 (configuration not stated)	.	-5.0
O=C(CNc1cccc(C(F)(F)F)c1)NN=C1CCCCC1	.	-0.9
CCN(CC)CCNC(=O)c1ccc(N)cc1	-0.0195&0.197&0.337&0.522&0.536	-0.8&1.0&-2.0
O=C(c1cc2ccccc2o1)N1CCCC1c1nc2ccccc2s1 (configuration not stated)	.	-3.0

Overlap with the part before: 2 entries; new compounds follow.
SMILES	KSHV LANA nucl	BasE inh
CCN(CC)CCNC(=O)c1ccc(N)cc1	-0.0195&0.197&0.337&0.522&0.536	-0.8&1.0&-2.0
O=C(c1cc2ccccc2o1)N1CCCC1c1nc2ccccc2s1 (configuration not stated)	.	-3.0
CCOC(=O)c1c(C)nsc1Nc1cc(C)ccc1C	.	2.4
Cc1cc(NC(=O)COC(=O)/C=C/c2ccccc2Cl)no1	.	1.0
O=C(NN=C1CCCCC1)c1n[nH]c2c1CCC2	2.02	-2.2
CCOC(=O)c1cccc(OCC(O)CN(C)Cc2ccc(C)o2)c1 (configuration not stated)	.	-1.4
CC1(C)C2CCC(C2)C1(C)NC(=S)NCC1CCCO1 (configuration not stated)	.	1.9
OCc1cc(Cl)cc(Cl)c1	-0.658	.
CCOC(=O)N1CCN(CC(O)COCc2ccc(Cl)cc2)CC1 (configuration not stated)	.	-3.9
O=C(c1ccc(-n2cccn2)cc1)N1CCCC1c1ccc2c(c1)OCCCO2 (configuration not stated)	.	-3.0
CN(CC(=O)N1CCN(Cc2ccccc2)CC1)S(=O)(=O)c1cnc[nH]1	-0.173	-0.7
S=C(NCCN1CCCCC1)Nc1ccccc1	-0.101	1.0
CC(=O)O[C@]1(C(C)=O)CCC2C3C=C(C)C4=CC(=O)CCC4(C)C3CCC21C (some centres not stated)	-0.108&-0.086	-0.7
O=C(Nc1ccc(C23CC4CC(CC(C4)C2)C3)cc1)c1cccs1	.	0.3
NC(=O)C[n+]1ccc(C(N)=O)cc1	-0.241	1.9
CCOC(=O)c1cc(Sc2n[nH]c(-c3ccccc3)n2)cc(C(=O)OCC)n1	-0.47	0.5
N#Cc1ccc(CSc2cnc3ccccc3n2)cc1	-0.126	0.5
Nn1c(SCC(=O)Nc2cccc(Br)c2)nnc1C(F)(F)F	.	0.4
O=C(c1ccco1)N1CCN(Cc2ccccc2)CC1	-0.726	.
O=C(Nc1ccc(N2CCN(C(=O)c3ccco3)CC2)cc1)c1ccccc1	2.4	-3.8
COc1cc(/C=C/C(=O)Nc2nnc(C)s2)cc(OC)c1OC	1.74	0.3
Cn1c2c(c(=O)[nH]c1=O)C(NC(=O)c1ccccc1)(C(F)(F)F)C(=O)N2 (configuration not stated)	-0.501	-0.3
COC(=O)c1cc2oc3ccccc3c2n1CC(=O)Nc1ccccc1OC	-0.459	2.1
CNC(=O)NC(=O)C(Sc1cccc[n+]1[O-])c1ccccc1 (configuration not stated)	.	-0.6
Cc1cc(NC(=O)c2cnn3c(C(F)(F)F)cc(-c4ccccc4)nc23)no1	0.734	-0.8
Cc1nnc(Sc2cnn(-c3ccccc3)c(=O)c2Cl)n1C	.	3.2
N#C/C(=N/Nc1ccc2c(c1)OCO2)C(=O)N1CCCC1	-0.786	1.2
N=c1c2c3c(sc2ncn1CCCO)CCCCC3	0.0985	-0.5
Nc1ncn(C2O[C@H](CO)[C@H](O)[C@@H]2O)c(=O)n1 (some centres not stated)	1.09	-0.5
Cc1ccc(C(=O)O)cc1NCc1ccccn1	0.0455	5.4
Cn1c(=O)[nH]c(=O)c2c1ncn2CC(O)CO (configuration not stated)	0.154	3.3
N#Cc1cccc(NC(=O)COc2ccccc2C(N)=O)c1	.	-1.9
O=C(Nc1nc(=O)c2ccccc2s1)c1ccccc1	.	1.3
CC(=O)N1CCC2(CC1)OC(=O)C(C)=C2C(=O)NCc1ccccc1	-0.587	-1.2
Cc1ccc(N2C(=N)S/C(=C/c3sccc3C)C2=O)cc1C	.	-2.5
Cc1noc2ncnc(NCCCN(Cc3ccccc3)C(C)C)c12	.	-0.1
Cc1cccc(C(=O)Nc2ccccc2C(=O)N2CCOCC2)c1	0.771	-0.7
C=CCn1c(=S)sc2c(=O)n(/N=C/c3ccc(Cl)cc3Cl)c(C)nc21	.	0.9
COc1ccc(OC)c(S(=O)(=O)NCc2nc(N)n(S(=O)(=O)c3cc(OC)ccc3OC)n2)c1	2.37	-4.0
CCC(C(=O)Nc1nc2nc(C)c(Cl)c(=O)n2[nH]1)c1ccccc1 (configuration not stated)	0.871	-1.7
Cn1/c(=N/N=C/c2ccc(OCC(N)=O)cc2)sc2ccccc21	-0.007	0.1
COc1ccc(NC(=O)c2c(C)oc3ccc(O)c(CN(CC(C)C)CC(C)C)c23)cc1	-0.0595	1.8
O=C1CCCN1c1nc(-c2ccccc2)cs1	.	4.6
CC1=CC(C)C2C(=O)N(CCC[N+](C)(C)C)C(=O)C2C1 (configuration not stated)	0.335	1.7
O=C(NCc1cccc(Br)c1)C1CCCN(c2nnc(N3CCCC3=O)s2)C1 (configuration not stated)	0.443	1.2
O=C1c2ccccc2C(=O)c2c1nc1n2CCCC1	-0.97	3.5
CN(C)C(=O)Oc1cccc([N+](C)(C)C)c1	0.932&-0.951&-0.151&-0.38	-2.1&1.0
CC(=O)OCC12COC(C)C(C1)C(C)=CC2C (configuration not stated)	0.249	0.1
O=C(O)c1ccc(OCc2occc2C(=O)O)cc1	-1.49	1.2
Cc1cc(C)n(CCS(=O)(=O)c2ccc(Cl)cc2)n1	.	-0.2
Cn1c(=O)n(C)c2cc(-c3nc4sc5c(c4c(=O)[nH]3)CCC5)ccc21	-0.41	-0.8
CSc1ccc(NC(=O)NCCn2cnc3cccnc32)cc1	-0.324	3.9
CCc1c(C)c(C#N)c2[nH]c3ccccc3n2c1=O	.	3.9
COc1ccc(CCNC(=O)CSc2nnc(CNC(=O)c3c(F)cccc3Cl)o2)cc1OC	0.0535	2.3
COCc1nnc(NC(=O)C2C(C=C(C)C)C2(C)C)s1 (configuration not stated)	-0.49	-3.3
CCOC(=O)c1c(NC(=S)NCCn2cc(Br)cn2)sc2c1CCCCC2	0.467	1.0
Cc1nn(Cc2ccccc2Cl)c(C)c1C(=O)NCC(C)C	.	1.3
CCOC(=O)c1ccc(CSc2ccc(Cl)cc2)o1	1.62	-1.5
COc1ccc(NC(=O)NCCC2=CCCCC2)cc1	2.39	-2.5
CC1Sc2ccc(S(=O)(=O)CCC(=O)N(C)Cc3ccccc3)cc2NC1=O (configuration not stated)	-1.33	0.3
O=C(N/N=C/c1cccs1)c1ccc(N2CCCC2=O)cc1	0.083	-0.7
CCN(CC)Cn1[nH]c(=O)ccc1=O	0.265	-2.0

Additional records:
SMILES	KSHV LANA nucl	BasE inh
Cc1ccccc1OCC(=O)O/N=C(\N)c1ccncc1	-0.0755	3.5
COCC(C)NC(=O)c1ccc(NS(=O)(=O)c2ccccc2)cc1 (configuration not stated)	-0.234	-1.2
CCc1ccc(C2NC(=O)NC(C)=C2C(=O)Nc2ccccc2)cc1 (configuration not stated)	.	-0.4
Cc1ccc(C(=O)NC(C(C)C)C(C)C)cc1	-0.994	-0.2
COc1cccc(/C=N/NC(=O)c2cccc(C)c2)c1O	-0.518	-5.0
COc1ccc(NC(=O)C2CCN(C(=O)/C=C/c3ccccc3)CC2)cn1	.	-3.3
c1ccc(Nc2nc3nonc3nc2N2CCOCC2)cc1	0.51	3.0
O=C1CC(NC2CCN(S(=O)(=O)c3ccc(Cl)cc3)CC2)C(=O)N1 (configuration not stated)	2.47	-2.4
CCC1=Nc2cc(C(=O)NCCCN3CCN(C)CC3)ccc2Sc2ccccc21	0.017	-3.0
CC(C)C(NC(=O)C1COc2ccccc2O1)c1nc2ccccc2[nH]1 (configuration not stated)	.	1.1
Clc1ccc(C2=NN(Cc3ccccc3)CC2)s1	1.36	-1.5
CCS(=O)(=O)N1CCC(C(=O)Nc2nnc(-c3ccccc3)o2)CC1	.	0.1
CS(=O)(=O)N(CC(=O)NCc1ccco1)c1ccccc1Br	.	-0.1
O=S(=O)(CCN1CCN(c2ccccn2)CC1)c1ccc(F)cc1	0.496	0.8
CCOC(=O)c1sc(N(Cc2ccccc2)C(=O)CN2CCN(C(C)=O)CC2)nc1C	.	0.2

Entries of single compounds from above. Order of screens: KSHV LANA nucl, BasE inh
`Cc1cc(NC(=O)c2cnn3c(C(F)(F)F)cc(-c4ccccc4)nc23)no1` is listed as 0.734, -0.8
`CC(C)C(NC(=O)C1COc2ccccc2O1)c1nc2ccccc2[nH]1` (configuration not stated) is listed as ., 1.1
`O=C(Nc1nc(=O)c2ccccc2s1)c1ccccc1` is listed as ., 1.3
`Cc1cc(NC(=O)COC(=O)/C=C/c2ccccc2Cl)no1` is listed as ., 1.0
`Cc1cccc(C(=O)Nc2ccccc2C(=O)N2CCOCC2)c1` is listed as 0.771, -0.7

Next part:
SMILES	KSHV LANA nucl	BasE inh
Cc1ccc[n+](CC(=O)c2cccs2)c1	-1.08	-0.7
CC(=O)Nc1ccc2oc(-c3ccc(C#N)cc3)cc(=O)c2c1	.	3.5
Cn1cc(NC(=O)Nc2cccnc2)c2ccccc2c1=O	-0.685	0.9
CC1CCN(CC(O)COc2ccccc2)CC1 (configuration not stated)	.	1.4
Cc1ccccc1C(=O)N/C(=C/c1ccc(-c2cccnc2Cl)o1)C(=O)NC1CC1	-1.03	-0.2
O=C(c1cccs1)N1CCN(c2ccccn2)CC1	-0.089	1.7
Oc1cccc(/C=N/n2cnnc2)c1	0.425	4.1
CN(N)C1=NS(=O)(=O)c2ccccc21	0.201	-1.1
CCN(CC)c1nc2ccccc2c(=O)s1	.	1.4
Cc1ccccc1C(=O)NC1CCN(CC(=O)N2CCCCC2C)CC1 (configuration not stated)	0.576	0.4
O=c1c(I)cn(Cc2ccccc2)c(=O)n1Cc1ccccc1	.	1.5
O=C1c2ccncc2C(=O)N1CNc1ccccc1	-1.18	1.9
O=C(Cn1nc(C(=O)O)c2ccccc2c1=O)NC(=O)NCc1ccco1	.	2.4
Cc1ccc(-c2noc(C(C)c3ccc(CC(C)C)cc3)n2)cc1 (configuration not stated)	.	0.7
COC(=O)c1ccccc1NC(=O)Cc1ccsc1	.	0.4
Cc1noc(-c2ccc(Cl)cc2)c1NC(=O)NN1CCCCC1	-0.913	-0.5
COc1cccc(NC(=O)c2ccnc(C(C)(C)C)c2)c1	0.835	-1.9
Cc1ccc(N2COc3ccc(C(C)(C)C)cc3C2)cc1	0.182	3.0
COCC(=O)/C=C1\Sc2ccccc2N1C	-0.851	-1.1
O=S(=O)(c1ccc(-n2cnnn2)cc1)N1CCCCCCC1	-0.244	-0.4
O=C(N1CCOCC1)N1CCOCC1	-0.605	3.3
NC(=O)c1c(NC(=O)CN(CCO)c2ccccc2)sc2c1CCC2	.	-2.0
COc1ccc(NC(=O)CSCC(=O)O)cc1	-0.849	0.7
CN(Cc1cccc(Cl)c1Cl)CC(O)COCc1ccccc1 (configuration not stated)	.	-1.7
COC(=O)CC1C(=O)NCCN1C(=O)CSc1nnc(-c2ccccc2)o1 (configuration not stated)	.	2.2
CCCCNc1ncnc2nc[nH]c12	1.34	-1.6
Cc1occc1-c1nnc2n1N=C(c1ccc(-c3cc(Cl)ccc3Cl)o1)CS2	-0.0445	1.5
CNC(=O)c1cc(-c2ccc(OC)cc2)nc2ccccc12	-1.26	-3.7
COc1ccc(C(=O)/C=C\Nc2ccc(S(=O)(=O)N=C(N)N)cc2)cc1OC	-0.832	-3.5
Cc1ccccc1NC(=O)CC1SC(N2CCCCC2)=NC1=O (configuration not stated)	.	1.9
O=C(CSc1ccc2c(c1)OCCO2)NC(=O)NCc1ccco1	.	2.5

From PubChem
